Screening results from PubChem.
UUG fidelity: modulators of start codon recognition fidelity in yeast; S. cerevisiae UUG-firefly luciferase reporter, luminescence/redox ratio; activity score, % at 18.7 µM; hit rate 0.13% among 350,000;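 active means replicate mean at a twofold rise or more, about +100% in these data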;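 further: firefly luciferase made from a UUG start codon reports start codon fidelity; reporter light over untreated wells divided by growth signal over untreated wells; some hits fall short of that in this replicate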
HIV Env fusion: blocks HIV Env-driven cell-cell fusion; HeLa-JRFL Env/CEM21 cell fusion, luciferase; inhibition, % at 12.3 µM; hit rate 1.1% among 360,000; AID 651610;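 active means mean replicate inhibition score of at least 50 and every replicate individually at or above 50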;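 further: 0% = plate neutral controls and 100% = maraviroc near 300 nM; one replicate is shown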
* = called active by the depositor; [ ] = remark or other dose. Only part of the results is shown; count on the stated rates, not on these rows.

SMILES	UUG fidelity	HIV Env fusion
C[C@@H]1CN([C@@H](C)CO)C(=O)c2cc(-c3ccccc3F)cnc2O[C@H]1CN(C)C	-10	15[16.7 µM]
CC(C)CC#Cc1cnc2c(c1)C(=O)N([C@@H](C)CO)C[C@@H](C)[C@H](CN(C)C(=O)CN1CCOCC1)O2	8	-3[16.7 µM]
O=C(C[C@H]1C[C@@H]2c3cc(NC(=O)NC4CCCC4)ccc3O[C@@H]2[C@@H](CO)O1)NCCc1ccccc1	9	0[16.7 µM]
C[C@H]1CN([C@@H](C)CO)C(=O)Cc2cc(NC(=O)C3CC3)ccc2O[C@@H]1CN(C)C(=O)Nc1ccc(C(F)(F)F)cc1	15	-8[16.7 µM]
C[C@@H]1CN([C@@H](C)CO)C(=O)c2cc(NC(=O)Nc3ccc4c(c3)OCO4)ccc2O[C@H]1CN(C)C(=O)Nc1ccc(C(F)(F)F)cc1	-5	1[16.7 µM]
COc1ccc(NC(=O)Nc2ccc3c(c2)C(=O)N([C@H](C)CO)C[C@@H](C)[C@H](CN(C)Cc2ccc(C(F)(F)F)cc2)O3)cc1	-5	11[16.7 µM]
C[C@@H]1CN([C@@H](C)CO)C(=O)c2cc(NS(=O)(=O)c3cn(C)cn3)ccc2O[C@@H](C)CCCCO[C@H]1CN(C)Cc1ccncc1	-5	3[16.7 µM]
Cc1noc(C)c1S(=O)(=O)Nc1ccc2c(c1)CC(=O)N([C@@H](C)CO)C[C@@H](C)[C@H](CN(C)S(C)(=O)=O)O2	-9	2[16.7 µM]
Cc1noc(C)c1S(=O)(=O)Nc1ccc2c(c1)CC(=O)N([C@@H](C)CO)C[C@H](C)[C@@H](CN(C)S(=O)(=O)c1cn(C)cn1)O2	18	-12[16.7 µM]
C[C@@H]1CN([C@H](C)CO)S(=O)(=O)c2ccc(C#Cc3ccccc3F)cc2O[C@H]1CN(C)C(=O)Cc1ccccc1	-7	15[16.7 µM]
COCC(=O)Nc1ccc2c(c1)[C@@H]1C[C@@H](CC(=O)NCCN3CCCCC3)O[C@@H](CO)[C@@H]1O2	9	-23[16.7 µM]
O=C(C[C@H]1C[C@H]2c3cc(NC(=O)NC4CCCCC4)ccc3O[C@H]2[C@H](CO)O1)NCc1ccccc1	16	6[16.7 µM]
C[C@H]1CN([C@@H](C)CO)C(=O)Cc2cc(NS(=O)(=O)c3ccccc3)ccc2O[C@@H]1CN(C)S(=O)(=O)c1ccc(F)cc1	7	9[16.7 µM]
Cc1noc(C)c1NC(=O)Nc1ccc2c(c1)C(=O)N(C)[C@@H]1CC[C@@H](CC(=O)N(C)C)O[C@@H]1CO2	-10	4[16.7 µM]
COc1ccccc1-c1ccc([C@H]2[C@@H](CO)N(C(=O)C3CCOCC3)[C@H]2C#N)cc1	7	23[16.7 µM]
C[C@@H]1CN([C@H](C)CO)C(=O)c2cc(NC(=O)CCN3CCOCC3)ccc2O[C@H]1CN(C)Cc1ccccc1	14	-5[16.7 µM]
COc1ccc(S(=O)(=O)N(C)C[C@@H]2Oc3ccc(NC(=O)CCCCCC(=O)Nc4ccccc4N)cc3CC(=O)N([C@@H](C)CO)C[C@@H]2C)cc1	10	-13[16.7 µM]
COc1ccc(NC(=O)Nc2ccc3c(c2)C(=O)N([C@@H](C)CO)C[C@@H](C)[C@@H](CN(C)C(=O)Nc2ccccc2)OCCCC[C@@H](C)O3)cc1	4	-11[16.7 µM]
Cc1cccc(S(=O)(=O)N[C@@H]2CC[C@@H](CCNC(=O)Nc3cc(F)ccc3F)O[C@H]2CO)c1	0	-21[16.7 µM]
CCCC#Cc1ccc2c(c1)O[C@H](CN(C)C(=O)CC)[C@H](C)CN([C@H](C)CO)S2(=O)=O	-11	10[16.7 µM]
CCCC#Cc1ccc([C@@H]2[C@@H](CO)N(C(=O)CN3CCOCC3)[C@H]2C#N)cc1	-17	11[16.7 µM]
C[C@@H]1CCCCO[C@H](CN(C)C(=O)c2ccccc2)[C@@H](C)CN([C@@H](C)CO)C(=O)c2cc(N(C)C)ccc2O1	11	-4[16.7 µM]
CO[C@H]1O[C@H](CO)[C@@H](OC(=O)Nc2cccc(F)c2)[C@H](OC(=O)Nc2ccc3c(c2)OCO3)[C@@H]1OC(=O)Nc1ccc2c(c1)OCO2	1	-8[16.7 µM]
C[C@@H]1CN([C@@H](C)CO)C(=O)c2cccc(N(C)C)c2O[C@@H]1CN(C)Cc1ccc(Oc2ccccc2)cc1	-9	0[16.7 µM]
COc1ccccc1-c1cn(CC[C@H]2CC[C@@H](NC(=O)CCN3CCCCC3)[C@@H](CO)O2)nn1	7	-11[16.7 µM]
Cc1ccc(-c2cnc3c(c2)C(=O)N([C@@H](C)CO)C[C@H](C)[C@H](CN(C)CC2CCOCC2)O3)cc1	-10	1[16.7 µM]
C[C@@H]1CN([C@@H](C)CO)S(=O)(=O)c2ccc(-c3ccc(F)cc3)cc2O[C@H]1CN(C)CC1CC1	77	32[16.7 µM]
CC(C)C#Cc1cnc2c(c1)C(=O)N([C@H](C)CO)C[C@H](C)[C@@H](CN(C)C(=O)c1ccccc1)O2	6	22[16.7 µM]
COc1ccc(-c2cnc3c(c2)C(=O)N([C@@H](C)CO)C[C@@H](C)[C@@H](CN(C)C(=O)NC2CCCC2)O3)cc1	12	-3[16.7 µM]
CCC(=O)Nc1ccc2c(c1)C(=O)N(C)C[C@@H](OC)[C@H](C)CN(Cc1cc(-c3ccccc3)on1)[C@H](C)CO2	-1	-51[16.7 µM]
O=C(NCC[C@@H]1CC[C@H](NS(=O)(=O)c2ccc(F)cc2)[C@H](CO)O1)c1ccc2c(c1)OCO2	-3	14[16.7 µM]
C/C=C/c1cnc2c(c1)C(=O)N([C@@H](C)CO)C[C@@H](C)[C@H](CN(C)C(=O)C1CCCCC1)O2	4	-25[16.7 µM]
CCC(=O)N(C)C[C@H]1Oc2ncc(/C=C/c3ccccc3)cc2C(=O)N([C@@H](C)CO)C[C@@H]1C	9	-17[16.7 µM]
Cc1ccc(S(=O)(=O)Nc2ccc3c(c2)CC(=O)N([C@H](C)CO)C[C@@H](C)[C@@H](CN(C)Cc2ccc(C(=O)Nc4ccccc4N)cc2)O3)cc1	3	-61[16.7 µM]
C[C@H]1CN([C@@H](C)CO)C(=O)c2cc(-c3cncnc3)cnc2O[C@@H]1CN(C)C(=O)Cc1ccccn1	7	5[16.7 µM]
N#C[C@@H]1[C@@H](c2ccc(C#Cc3cccc(F)c3)cc2)[C@H](CO)N1C(=O)C1CCC1	-14	4[16.7 µM]
C[C@@H]1CN([C@H](C)CO)S(=O)(=O)c2ccc(C#Cc3ccccn3)cc2O[C@@H]1CN(C)Cc1ccccc1	-6	5[16.7 µM]
C[C@@H]1CN([C@@H](C)CO)C(=O)c2cc(NS(=O)(=O)c3ccc(F)cc3)ccc2O[C@H]1CN(C)Cc1ccc(C(=O)O)cc1	10	-25[16.7 µM]
C[C@H](CO)N1C[C@H](C)[C@H](CN(C)S(=O)(=O)c2ccccc2)Oc2ccc(N(C)C)cc2C1=O	0	-2[16.7 µM]
C[C@@H]1CN([C@H](C)CO)C(=O)Cc2cc(NC(=O)C3CCCCC3)ccc2O[C@@H]1CN(C)Cc1ccc(Oc2ccccc2)cc1	-5	-46[16.7 µM]
Cc1ccc(S(=O)(=O)N(C)C[C@@H]2OCCCC[C@H](C)Oc3ccc(NC(=O)NC4CCCCC4)cc3C(=O)N([C@@H](C)CO)C[C@@H]2C)cc1	-3	-8[16.7 µM]
O=C(C[C@@H]1C=C[C@@H](NC(=O)Nc2ccccc2F)[C@@H](CO)O1)NCc1ccc(-c2ccccc2)cc1	4	20[16.7 µM]
CO[C@H]1CN(C)C(=O)c2ccc(NC(=O)C3CCC3)cc2OC[C@@H](C)NC[C@@H]1C	-17	-12[16.7 µM]
CCNC(=O)C[C@@H]1CC[C@@H]2[C@H](COc3ccc(NC(=O)Nc4cccc(C)c4)cc3C(=O)N2C)O1	4	33[16.7 µM]
C[C@H]1CN([C@@H](C)CO)C(=O)c2cccc(NS(=O)(=O)c3ccccc3)c2O[C@@H]1CN(C)C(=O)Nc1ccc2c(c1)OCO2	9	-4[16.7 µM]

At a glance, part of the list above.
SMILES	UUG fidelity	HIV Env fusion
C[C@@H]1CN([C@H](C)CO)S(=O)(=O)c2ccc(C#Cc3ccccn3)cc2O[C@@H]1CN(C)Cc1ccccc1	-6	5[16.7 µM]
C[C@@H]1CN([C@@H](C)CO)C(=O)c2cc(NS(=O)(=O)c3ccc(F)cc3)ccc2O[C@H]1CN(C)Cc1ccc(C(=O)O)cc1	10	-25[16.7 µM]
C[C@H](CO)N1C[C@H](C)[C@H](CN(C)S(=O)(=O)c2ccccc2)Oc2ccc(N(C)C)cc2C1=O	0	-2[16.7 µM]
C[C@@H]1CN([C@H](C)CO)C(=O)Cc2cc(NC(=O)C3CCCCC3)ccc2O[C@@H]1CN(C)Cc1ccc(Oc2ccccc2)cc1	-5	-46[16.7 µM]
Cc1ccc(S(=O)(=O)N(C)C[C@@H]2OCCCC[C@H](C)Oc3ccc(NC(=O)NC4CCCCC4)cc3C(=O)N([C@@H](C)CO)C[C@@H]2C)cc1	-3	-8[16.7 µM]
O=C(C[C@@H]1C=C[C@@H](NC(=O)Nc2ccccc2F)[C@@H](CO)O1)NCc1ccc(-c2ccccc2)cc1	4	20[16.7 µM]
CO[C@H]1CN(C)C(=O)c2ccc(NC(=O)C3CCC3)cc2OC[C@@H](C)NC[C@@H]1C	-17	-12[16.7 µM]
CCNC(=O)C[C@@H]1CC[C@@H]2[C@H](COc3ccc(NC(=O)Nc4cccc(C)c4)cc3C(=O)N2C)O1	4	33[16.7 µM]
C[C@H]1CN([C@@H](C)CO)C(=O)c2cccc(NS(=O)(=O)c3ccccc3)c2O[C@@H]1CN(C)C(=O)Nc1ccc2c(c1)OCO2	9	-4[16.7 µM]

Following part:
SMILES	UUG fidelity	HIV Env fusion
C[C@H](CO)N1C[C@H](C)[C@H](CN(C)C(=O)Nc2ccc3c(c2)OCO3)OCCCC[C@H](C)Oc2ccc(NS(=O)(=O)c3ccc(Cl)cc3)cc2C1=O	-12	5[16.7 µM]
Cc1ccc(S(=O)(=O)N(C)C[C@@H]2Oc3ncc(C#Cc4cccc(F)c4)cc3C(=O)N([C@H](C)CO)C[C@@H]2C)cc1	-12	32[16.7 µM]
COc1ccc(CN(C)C[C@@H]2OCCCC[C@H](C)Oc3ccc(NS(=O)(=O)c4ccc(C)cc4)cc3C(=O)N([C@@H](C)CO)C[C@@H]2C)cc1	12	-8[16.7 µM]
CCCNC(=O)C[C@H]1CC[C@@H]2[C@H](COc3ccc(NC(=O)Nc4cccc(C)c4)cc3C(=O)N2C)O1	13	-1[16.7 µM]
C[C@H]1CN([C@@H](C)CO)C(=O)c2cccc(NC(=O)C3CCOCC3)c2O[C@@H]1CN(C)Cc1ccc2c(c1)OCO2	0	-2[16.7 µM]
C/C=C/c1cnc2c(c1)C(=O)N([C@@H](C)CO)C[C@H](C)[C@H](CN(C)C(=O)Nc1ccccc1F)O2	10	-7[16.7 µM]
C[C@@H]1CCCCO[C@H](CN(C)Cc2ccccc2)[C@@H](C)CN([C@H](C)CO)C(=O)c2cc(NC(=O)Nc3cccc4ccccc34)ccc2O1	-7	18[16.7 µM]
C[C@@H]1CN([C@@H](C)CO)C(=O)c2cc(C3=CCCCC3)cnc2O[C@H]1CN(C)Cc1ccccc1	9	-16[16.7 µM]
CO[C@H]1CN(C)C(=O)c2ccc(NC(=O)Cc3ccccc3)cc2OC[C@@H](C)N(C)C[C@@H]1C	-13	11[16.7 µM]
CN1C(=O)c2cc(NC(=O)c3ccc(C(F)(F)F)cc3)ccc2OC[C@H]2O[C@@H](CC(=O)NCc3ccc4c(c3)OCO4)CC[C@H]21	-5	10[16.7 µM]
O=C(N[C@H]1CC[C@@H](CCNS(=O)(=O)c2ccccc2)O[C@H]1CO)c1cnccn1	-12	-26[16.7 µM]
CCCC#Cc1ccc2c(c1)O[C@@H](CN(C)C(=O)C1CC1)[C@@H](C)CN([C@H](C)CO)S2(=O)=O	10	10[16.7 µM]
COc1ccc(CN(C)C[C@@H]2Oc3ccc(NC(=O)Nc4ccc(OC)cc4)cc3C(=O)N([C@H](C)CO)C[C@@H]2C)cc1	9	63*[16.7 µM]
CCS(=O)(=O)NCC[C@H]1CC[C@H](NC(=O)Nc2cc(Cl)cc(Cl)c2)[C@@H](CO)O1	-15	5[16.7 µM]
N#C[C@@H]1[C@@H](c2ccc(C#Cc3cccc(F)c3)cc2)[C@@H](CO)N1C(=O)C1CCCC1	-20	-6[16.7 µM]
C[C@H](CO)N1C[C@H](C)[C@H](CN(C)Cc2ccccc2)Oc2ccc(NS(=O)(=O)c3ccc(Cl)cc3)cc2C1=O	8	11[16.7 µM]
C[C@H](CO)N1C[C@H](C)[C@H](CN(C)Cc2ccccc2)Oc2ccc(NS(C)(=O)=O)cc2C1=O	-14	10[16.7 µM]
CC(C)C#Cc1cnc2c(c1)C(=O)N([C@@H](C)CO)C[C@H](C)[C@@H](CN(C)C(=O)c1ccccn1)O2	6	5[16.7 µM]
COc1cccc(NC(=O)C[C@H]2CC[C@@H]3[C@H](COc4ccc(NS(=O)(=O)c5cccc(F)c5)cc4C(=O)N3C)O2)c1	4	-14[16.7 µM]
C[C@@H]1CN([C@@H](C)CO)C(=O)c2cc(NC(=O)CCC(F)(F)F)ccc2O[C@@H](C)CCCCO[C@H]1CN(C)C(=O)CCC(F)(F)F	14	-6[16.7 µM]
Cc1noc(C)c1S(=O)(=O)Nc1ccc2c(c1)C(=O)N([C@@H](C)CO)C[C@H](C)[C@H](CN(C)S(=O)(=O)c1cn(C)cn1)OCCCC[C@@H](C)O2	3	3[16.7 µM]
